Compound activity from PubChem BioAssay.
miR-21 reporter: qHTS Assay for Modulators of miRNAs and/orActivators of miR-21; 340,000 tested, under 10 active; HeLa miR-21 FLuc reporter, luciferase, 48 h; Potency, µM (doses to about 38.3 µM), inactives show at the highest dose reporter change, positive = more light; active = well fitted rising curve with a large enough effect; inconclusive = small, poorly fitted or top-dose-only effect; inactive = no such curve, though single readings can be large or run the other way;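 also: % of control where 0% means no effect; miR-21 action dims this reporter so a rising signal means less miR-21 action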
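Luminescence from a firefly luciferase reporter carrying a miR-21 binding site downstream, stably expressed under a CMV promoter in HeLa cells that make miR-21 endogenously, reports miRNA modulation after 48 h compound exposure up to approximately 40uM final.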
Rango dissoc inh: qHTS Assay for Inhibitors of RanGTP induced Rango (Ran-regulated importin-beta cargo) - Importin beta complex dissociation. Snurportin-1 (Homo sapiens) + GTP-binding nuclear protein Ran (Homo sapiens) + Importin …. Biochemical FRET Rango-importin beta, RanGTP-induced dissociation. Potency, µM (doses to about 46.1 µM), without a hit: at the highest dose activity change, negative = inhibition. hit rate 0.071% among 340,000. AID 540253, 2011; active means falling FRET ratio curve, often poorly fitted, with flat reads before Ran was added; inconclusive means other falling curves, or compound fluorescence or quenching; inactive means flat or rising ratio curve;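 also: potency is read from the fitted curve at half-maximal effect; % of control where 0% means no effect; nearly all actives have a fitted effect of over 45% in size; -100% = wells without RanGTP and RCC1; the record marks most hits as doubtful in a second field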
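Compounds preincubate 5 min with complex of recombinant Rango and importin beta in PBS with 1 mM DTT. Ran (0.6 uM) loaded with 2 mM GTP plus 0.2 uM RCC1 starts dissociation; FRET is recorded 45 min later.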
GLA inh pH 4.5: qHTS Assay for Inhibitors of Human alpha-Galactosidase at pH 4.5; 230,000 tested, under 10 active; purified enzyme, 4-MU-alpha-Gal fluorescence, pH 4.5; Alpha-galactosidase A (Homo sapiens), P06280; activity change, negative = inhibition, % at 105 µM; inconclusive = small, poorly fitted or top-dose-only inhibition, or a rising curve; inactive = flat fitted curve, though single readings scatter; no compound was filed as active;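 also: 0% = full activity with enzyme and -100% = basal without enzyme; dose as in the result columns while the protocol names 77 µM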
Rango complex inh: qHTS Assay for Inhibitors of Rango (Ran-regulated importin-beta cargo) - Importin beta complex formation; Potency, µM (top dose mostly 92.2 µM), for inactives: at the highest dose inhibition of complex formation; hit rate 0.031% among 340,000; Importin subunit beta-1 (Homo sapiens), Q14974; Rango CFP/YFP FRET sensor + importin beta, 45 min; active = rising FRET ratio curve, often small or poorly fitted; inconclusive = mostly compound fluorescence or quenching in the first reads; inactive = flat curves in all reads;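 also: potency is read from the fitted curve at half-maximal effect; 0% = DMSO wells and 100% = buffer wells lacking importin beta; nearly all actives have a fitted effect of over 15% in size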
Target sequence (Q14974 whole entry, looked up): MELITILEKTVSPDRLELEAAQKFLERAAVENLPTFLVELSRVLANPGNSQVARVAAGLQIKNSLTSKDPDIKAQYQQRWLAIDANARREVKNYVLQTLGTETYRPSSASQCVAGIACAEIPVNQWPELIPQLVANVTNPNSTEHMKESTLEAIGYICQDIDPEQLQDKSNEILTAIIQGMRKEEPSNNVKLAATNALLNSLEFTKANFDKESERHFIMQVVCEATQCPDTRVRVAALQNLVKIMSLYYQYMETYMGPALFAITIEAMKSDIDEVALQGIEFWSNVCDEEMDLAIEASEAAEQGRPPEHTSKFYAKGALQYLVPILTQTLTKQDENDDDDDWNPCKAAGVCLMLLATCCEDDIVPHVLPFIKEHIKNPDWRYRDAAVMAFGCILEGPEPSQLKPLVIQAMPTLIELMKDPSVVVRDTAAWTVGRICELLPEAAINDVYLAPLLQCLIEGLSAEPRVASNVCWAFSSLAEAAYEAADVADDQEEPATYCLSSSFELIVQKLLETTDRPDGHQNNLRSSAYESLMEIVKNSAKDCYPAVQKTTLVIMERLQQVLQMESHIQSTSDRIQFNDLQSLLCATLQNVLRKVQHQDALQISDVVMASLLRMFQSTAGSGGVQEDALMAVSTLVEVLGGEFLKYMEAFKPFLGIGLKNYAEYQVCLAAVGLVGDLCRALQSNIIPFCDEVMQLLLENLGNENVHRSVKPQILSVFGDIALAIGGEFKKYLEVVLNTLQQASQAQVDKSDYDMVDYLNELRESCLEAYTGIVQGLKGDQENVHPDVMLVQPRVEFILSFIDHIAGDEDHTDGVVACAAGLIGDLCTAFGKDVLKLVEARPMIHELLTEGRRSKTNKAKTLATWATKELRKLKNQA
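Inhibition scored from the CFP 486 nm/YFP 530 nm FRET ratio 45 min after adding 0.125 microM importin beta to 50 nM Rango biosensor preincubated 5 min with compound (room temperature, PBS with DTT, Tween-20, BSA). No-importin wells as positive control.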
The depositor's hits bear a star; u = inconclusive; x = no result given; [ ] = remark or other dose.

Values run as follows: miR-21 reporter	Rango dissoc inh	GLA inh pH 4.5	Rango complex inh
Cc1cc(C)cc(N(C(=O)Cc2cccs2)C(C(=O)NC2CCCCC2)c2ccccn2)c1 (centres undefined)
  -2.6%	1.7%	-2.0	-7.8%
Cc1cc(C(=O)NN)n[nH]1
  -28.4%	17.8%	-5.5	-1.4%
O=[N+]([O-])c1ccccc1/C=C/C=N/n1c(-c2ccccc2F)n[nH]c1=S
  -10.6%	0.8%	-6.5	3.7%
COc1ccc(CCC(=O)NCCOc2ccc(C)cc2)cc1
  2.3%	-10.9%	x	4.2%
Cc1cc(C)n(-c2cc(N3CCN(S(=O)(=O)c4ccc(C)c(C)c4)CC3)ccc2[N+](=O)[O-])n1
  0.0%	-12.8%	3.4	-0.5%
COC(=O)COc1ccc2c(=O)c(-c3ccccc3OC)coc2c1
  1.8%	7.5%	3.9	-0.1%
CC1CCN(S(=O)(=O)c2ccc(C(=O)OC(C)C(=O)N(C)C3CCCCC3)cc2)CC1 (centres undefined)
  x	-6.1%	x	-1.1%
CC1CCCN(C(=O)C2CCN(c3nc(-c4ccccc4)nc4c3CCC4)CC2)C1 (centres undefined)
  4.2%	-11.1%	x	-2.0%
CCCN1CCN(CCCNC(=O)CCN2C(=O)COc3ccccc32)CC1
  -0.2%	-7.6%	x	1.8%
Clc1ccc(-c2nc(NCCCN3CCOCC3)c3ccccc3n2)cc1
  17.3%	5.7%	-9.9	1.5%
Cc1ccccc1S(=O)(=O)Cc1ccc(C(=O)NCCN2CCN(Cc3ccccc3)CC2)o1
  -1.9%	1.3%	0.8	2.7%
Cc1ccc(C(=O)NCc2ccccn2)cc1Cl
  -30.8%	-9.3%	-4.8	-4.5%
CCSc1nsc(NC(=O)Nc2cccc(OC)c2)n1
  24.7%	1.0%	x	-0.3%
COc1ccc(C2NCCO2)cc1OC (centres undefined)
  -0.7%	7.6%	3.4	1.0%
COc1ccc(C2CC(c3ccccc3)=NN2C(=O)c2ccc(Cl)c([N+](=O)[O-])c2)cc1 (centres undefined)
  4.9%	4.7%	3.5	-2.1%
CCC(C)[C@H]1CNC(=S)N1CCc1cccc2ccccc12 (some centres undefined)
  18.0%	10.5%	-1.4	0.6%
CC(C)(C)c1ccc(C(=O)NCCC(=O)NNC(=O)COc2ccccc2F)cc1
  x	1.7%	x	-0.6%
Cn1cc(/C=C/c2cc[n+](C)cc2)c2cc(Cl)ccc21
  u	u	x	u
O=C(N/N=C/c1ccc2c(c1)OCO2)c1cc2ccccc2o1
  -23.9%	-5.3%	3.4	-3.2%
COc1cc(OC)c2c(-c3cccc(-c4ccc(N(C)C)cc4)c3)cc(=O)oc2c1
  x	0.8%	-9.2	2.1%
O=[N+]([O-])c1ccc(N2CCOCC2)cn1
  -6.5%	-3.4%	-2.2	-0.4%
Cc1ccc2[nH]c(C)c(CCNC(=O)c3cc4cc([N+](=O)[O-])ccc4oc3=O)c2c1
  -5.9%	-2.4%	-7.0	2.8%
Cn1nnnc1SCc1cc(=O)[nH]c2ccccc12
  -8.8%	-10.8%	4.7	-1.0%
COc1cc(CNc2ccc3c(c2)OCCO3)ccc1OCC(N)=O
  -14.7%	3.5%	-2.5	0.2%
O=c1c2ccccc2c(-c2ccc(F)cc2)nn1-c1ccc(C(F)(F)F)cc1
  -6.4%	6.3%	2.6	9.5%
CCC(C)Sc1cccc(-c2nc3cc(C)ccn3c2NC2CCCCC2)c1 (centres undefined)
  x	-18.9%	x	u
CC(C)(C#N)Nn1cnnc1
  -2.9%	3.4%	1.2	0.7%
Cc1ccc(-n2c(C)cc(/C=N/NC(=O)CC3(C)OCCO3)c2C)c(C)c1
  -6.1%	6.4%	7.0	3.5%
O=C(CNC(=O)C1CCCCC1)NNC(=O)c1ccccc1Br
  -0.8%	-1.6%	x	-0.2%
COCCNC(=O)CSc1nc2c(n1-c1ccccc1)CCCC2
  -7.5%	10.5%	-6.0	5.7%

Arranged by SMILES length (rising): part of the list above
Values run as follows: miR-21 reporter	Rango dissoc inh	GLA inh pH 4.5	Rango complex inh
O=C(N/N=C/c1ccc2c(c1)OCO2)c1cc2ccccc2o1
  -23.9%	-5.3%	3.4	-3.2%
CC1CCCN(C(=O)C2CCN(c3nc(-c4ccccc4)nc4c3CCC4)CC2)C1 (centres undefined)
  4.2%	-11.1%	x	-2.0%
Cc1cc(C)n(-c2cc(N3CCN(S(=O)(=O)c4ccc(C)c(C)c4)CC3)ccc2[N+](=O)[O-])n1
  0.0%	-12.8%	3.4	-0.5%

(next part)
Values run as follows: miR-21 reporter	Rango dissoc inh	GLA inh pH 4.5	Rango complex inh
CCOC(=O)N1CCN(CCCc2ccccc2)CC1
  -16.0%	u	x	-0.2%
O=C(CN1C(=O)c2ccccc2C1=O)OCCOCCN=C1NS(=O)(=O)c2ccccc21
  -0.1%	-7.6%	8.2	0.0%
CCOC(=O)CC(N)c1ccc(OC)cc1 (centres undefined)
  -5.2%	-0.9%	0.8	-4.6%
Cc1nn(-c2ccc(C(=O)NCC(c3ccco3)N3CCCC3)cc2)c(C)c1Cl (centres undefined)
  x	0.7%	x	4.2%
CC(=O)Nc1ccc(S(=O)(=O)N[C@@H](C)C(=O)OCC(=O)NC2CCCC2)cc1
  x	-11.3%	x	1.1%
CCCN1C(=O)C(=O)c2cc(Cl)ccc21
  x	21.0%	x	3.0%
CC(C)(COC(=O)c1ccccc1)N1CC2CCC(C1)O2
  x	-5.1%	x	-0.3%
COc1cccc(OCCn2cc(/C=N/NC(=O)c3ccncc3)c3ccccc32)c1
  1.0%	-11.7%	-4.8	u
O=CN1CCN(C(C(=O)NC2CCCCC2)c2ccc(Cl)cc2)CC1 (centres undefined)
  x	-7.0%	x	-2.7%
Cc1cccc(NCc2nc3ccccc3n2Cc2ccccc2)c1
  -33.3%	-6.4%	-3.5	-1.2%
CC(=O)Nc1ccc(Sc2ncccc2C(=O)Nc2ccc(OC(F)(F)F)cc2)cn1
  -18.8%	-9.8%	-13.9	-1.6%
COc1ccccc1N1CCN(Cc2cc3c(cc2[N+](=O)[O-])OCO3)CC1
  4.1%	-5.3%	x	-4.3%
CC(=O)N1CCC(N(CCN2CCOCC2)C(=S)Nc2cccc(C)c2)CC1
  -1.9%	-0.9%	-4.1	7.4%
Cc1ccc(NC(=S)c2nc3ccccc3[nH]2)cc1
  -1.3%	6.7%	3.2	-0.1%
O=C(Cc1ccc(-c2ccccc2)cc1)Nc1ccccn1
  -26.2%	-8.6%	x	1.0%
C[C@H](CO)N1C[C@H](C)[C@@H](CN(C)S(=O)(=O)c2cn(C)cn2)Oc2ccc(NC(=O)Cn3cnnn3)cc2C1=O
  x	-10.8%	x	-2.2%
CCOc1cccc(CNc2ccc(O)cc2)c1OCc1ccc(Cl)cc1Cl
  -10.6%	0.0%	1.1	-1.0%
Cc1ccc(C(C(=O)NC(C)(C)C)N(C(=O)CCC(=O)Nc2ccccn2)c2ccccc2F)cc1 (centres undefined)
  11.3%	u	x	1.3%
COC(=O)c1cc2c(ccn2-c2ccc(F)cc2)n1C(C)C
  -5.4%	u	0.7	7.1%
CN(Cc1ccccc1)C(=O)c1nc2ccccn2c1CN1CCCC1c1nccs1 (centres undefined)
  -1.4%	0.2%	0.8	-4.7%
O=c1[nH]c2cc(Cl)c([N+](=O)[O-])nc2[nH]1
  -1.6%	-6.4%	-1.9	-0.5%
O=C1CC(C(=O)Nc2ccc(Cl)c(Cl)c2)S/C(=N\N=C\c2ccco2)N1 (centres undefined)
  -1.7%	-13.2%	2.3	5.8%
Cc1ccc(N2CN(Cc3cccnc3)CNC2=S)c(C)c1
  -4.1%	9.9%	3.2	5.9%
O=C(COC(=O)CC1CC2CCC1C2)Nc1ccc(Cl)c(S(=O)(=O)N2CCOCC2)c1 (centres undefined)
  x	0.3%	x	-1.9%
O=Cc1cccn1-c1ncc(Br)cn1
  -3.5%	12.2%	2.5	2.3%
CCn1cc(C(=O)N2CCCC2)c(=O)c2cc(S(=O)(=O)N(C)C)ccc21
  0.0%	16.1%	-15.0	6.6%
O=C(C1=COCCO1)N1CCN(S(=O)(=O)c2cccc(Br)c2)CC1
  x	19.0%	x	2.3%
CCn1c(=O)c(C(=O)CN2CCOCC2)c(N)n(Cc2ccccc2)c1=O
  7.0%	-6.2%	-1.5	0.4%
CCOC(=O)c1[nH]c(C)c(CCC(=O)OC)c1C
  -9.9%	1.2%	4.8	0.3%
Cc1nc2ccc(S(=O)(=O)N(C)CC(=O)NCCc3ccccc3)cc2s1
  -0.2%	-5.7%	x	0.6%
CCOc1ccccc1NC(=O)Cn1c(=O)n(-c2ccc(OC)cc2OC)c(=O)c2c(C)c(C(=O)N(CC)CC)sc21
  1.8%	-3.0%	-6.6[21.1 µM]	-5.1%
O=C(CN(c1cccc(C(F)(F)F)c1)S(=O)(=O)c1ccc(Cl)c([N+](=O)[O-])c1)NCc1ccccc1
  u	1.3%	-12.4	5.0%
CC(=O)OC1CC(C)(C)N(OC(=O)c2ccc(N)cc2)C(C)(C)C1
  1.2%	1.4%	4.9	2.1%
Nc1ccc(C(=O)NN2C(=O)[C@H](Cl)C2c2ccc(Cl)cc2)cc1 (some centres undefined)
  x	-7.1%	x	5.4%
COc1ccccc1C1CCN(C(=O)c2cccs2)CC1
  4.2%	5.1%	0.3	4.1%
COc1cccc(C(=O)Nc2nnc(S(=O)(=O)N3CCCCC3)s2)c1
  0.2%	15.0%	x	0.4%
COc1cccc(N(CC(=O)NCCSc2ccccn2)S(C)(=O)=O)c1
  -5.6%	-0.6%	-4.9	-0.6%
COc1ccc(NC(=O)Cn2cnc3c(oc4nc5c(cc43)COC(C)(C)C5)c2=O)cc1
  3.0%	-8.2%	-10.8	1.1%
C[N+](C)(C)CCCCCC(=O)/C=N/O
  2.1%	0.1%	-2.9	-2.4%
Cc1c(C(=O)O)sc(S(=O)(=O)N2CCN(C(=O)CCc3ccccc3)CC2)c1C(=O)O
  x	-2.9%	x	6.5%
COC(=O)C1=C(O)/C(=C\c2ccc(OCC(=O)Nc3ccccc3)cc2)N=C1C
  -0.2%	u	x	4.4%
CN(Cc1ccccc1)C(=O)c1ccccc1NC(=O)C1CC1
  2.7%	2.9%	5.2	-0.9%
CC(=O)c1ccc(N2Cc3ccccc3/C2=N\C(=O)Nc2ccccc2)cc1
  -39.3%	0.2%	-6.4	-0.3%
O=C(CSc1nnc(-c2ccc(S(=O)(=O)N3CCCC3)cc2)n1CC1CCCO1)NC1CC1 (centres undefined)
  -0.6%	14.1%	-3.4	-0.1%
CC(=O)Oc1cccc(N2C(=O)c3ccc(C(=O)Nc4cccnc4)cc3C2=O)c1
  -0.3%	5.8%	1.8	1.1%
CC(C)(C)OC(=O)C[C@@H]1C/C=C\C[C@@H](CC(=O)N(CCO)Cc2ccccc2)C(=O)N[C@H](Cc2ccccc2)COC1=O
  x	1.2%	x	1.5%
COc1ccc(C2CC(c3ccccc3)=NN2c2ccc(S(N)(=O)=O)cc2)cc1OC (centres undefined)
  -0.8%	-17.0%	u	u
O=C(c1ccc2ccccc2n1)N1CCN(S(=O)(=O)c2ccc(Cl)cc2)CC1
  x	7.2%	x	1.7%
C/C(Cc1ccccc1)=N\NC(=O)c1ccc(F)cc1
  -19.6%	0.6%	1.6	0.0%

Not all compounds are listed, so the mix of outcomes need not match the whole.
